TrxR1 substrate – rat thioredoxin reductase 1 substrate activity; O89049; purified TrxR1 substrate turnover, NADPH consumption readout; Potency, µM (top dose mostly 114 µM), for the others: top-dose activity change, negative = substrate turnover; hit rate 0.01% among 390,000; AID 588456; note: % is set by controls: 0 for no effect and ±100 for the full control effect; nearly all actives have a fitted effect of over 50% in size
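Rat TrxR1, dispensed at 90 nM, was prereduced with 400 uM NADPH (final) for 5 min at ~22 deg C, then incubated with compound 15 min before 400 uM selenite. A first-read NADPH fluorescence drop versus no-compound background flagged substrates.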
Vif-APOBEC3G blk – blocks the Vif interaction with human APOBEC3G | Potency, µM (highest dose often 46.1 µM), for the others: top-dose activity, negative = active, most hits filed as inhibitors | Q9HC16 | hit rate 0.076% among 410,000 | HeLa A3G-eYFP + Vif (tagged APOBEC3G with the HIV-1 protein that degrades it), YFP fluorescence, overnight;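 note: % is set by controls: 0 for no effect and ±100 for the full control effect; nearly all actives have a fitted effect of over 60% in size; hits raise eYFP signal because A3G escapes Vif-driven loss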
Target sequence (Q9HC16 whole entry, looked up): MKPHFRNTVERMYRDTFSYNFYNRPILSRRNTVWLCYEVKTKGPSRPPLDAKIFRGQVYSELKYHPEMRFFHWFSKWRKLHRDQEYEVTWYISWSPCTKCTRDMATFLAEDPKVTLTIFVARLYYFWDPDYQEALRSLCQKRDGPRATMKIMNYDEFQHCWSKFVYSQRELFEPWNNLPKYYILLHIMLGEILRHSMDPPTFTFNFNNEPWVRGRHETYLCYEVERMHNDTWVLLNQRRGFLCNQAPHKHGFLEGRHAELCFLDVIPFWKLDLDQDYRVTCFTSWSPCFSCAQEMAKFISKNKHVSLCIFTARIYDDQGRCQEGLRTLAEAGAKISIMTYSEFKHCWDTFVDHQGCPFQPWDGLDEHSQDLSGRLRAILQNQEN
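HeLa cells stably expressing Vif and C-terminally eYFP-tagged A3G, seeded overnight at 37 deg C, then exposed to compound by pintool overnight at 37 deg C. Rise in yellow fluorescence (Ex 488/Em 500-530, Acumen) marks blocked Vif-driven A3G degradation.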
RGS4 inh – human RGS4 inhibition. P49798. Transcreener GDP fluorescence polarization, RGS4-accelerated GTP hydrolysis. Potency, µM (highest dose often 114 µM), without a hit: top-dose activity change, negative = inhibition, usual class: inhibitors. hit rate 0.039% among 390,000. AID 504845; note: % is set by controls: 0 for no effect and ±100 for the full control effect; nearly all actives have a fitted effect of over 75% in size; some results filed as inactive show a strong effect at the top dose
Target sequence (P49798 whole entry, looked up): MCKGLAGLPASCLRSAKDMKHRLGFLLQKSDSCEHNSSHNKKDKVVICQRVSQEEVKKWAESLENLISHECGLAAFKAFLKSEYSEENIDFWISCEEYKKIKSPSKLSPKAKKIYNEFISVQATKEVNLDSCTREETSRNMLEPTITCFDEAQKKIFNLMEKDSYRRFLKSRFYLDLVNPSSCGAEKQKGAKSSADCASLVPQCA
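MLSMR compounds (23 nl, pin-transferred) preincubated 10 min at room temperature with a 500nM (2x) first reagent, then RGS4 at 900nM (2x) plus Transcreener GDP mix added; fluorescence polarization (620/688 nm) read before and after 90 min at 30 °C.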
IDH1 R132H inh – human IDH1 R132H inhibition. hit rate 0.093% among 390,000. IDH1-R132H enzyme, NADPH consumption, diaphorase/resazurin fluorescence. Potency, µM (top dose mostly 76.6 µM), inactives show at the highest dose activity change, negative = inhibition, actives largely listed as inhibitors. O75874. AID 602179; note: % is set by controls: 0 for no effect and ±100 for the full control effect; nearly all actives have a fitted effect of over 65% in size
Target sequence (O75874 whole entry R132H, stated change not applied): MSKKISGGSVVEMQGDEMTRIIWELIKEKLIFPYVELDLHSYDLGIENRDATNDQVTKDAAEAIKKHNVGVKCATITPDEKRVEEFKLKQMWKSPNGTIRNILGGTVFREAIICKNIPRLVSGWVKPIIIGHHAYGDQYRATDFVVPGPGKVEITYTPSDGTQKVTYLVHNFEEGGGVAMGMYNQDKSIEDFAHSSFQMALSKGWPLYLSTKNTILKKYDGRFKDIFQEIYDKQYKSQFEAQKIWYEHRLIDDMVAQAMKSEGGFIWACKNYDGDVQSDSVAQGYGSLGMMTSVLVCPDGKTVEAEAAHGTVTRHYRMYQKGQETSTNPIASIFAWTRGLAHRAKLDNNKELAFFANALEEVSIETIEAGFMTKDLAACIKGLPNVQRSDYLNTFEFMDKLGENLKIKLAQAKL
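IDH1-R132H (0.5 ug/mL) preincubated 30 min with compound, then NADPH (0.016 mM) and alpha-KG (2 mM) added; 80 min at RT, pH 7.5. Remaining NADPH coupled via diaphorase/resazurin to fluorescence (540/590 nm); concentration-response curves normalized to no-enzyme control.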
RXFP1 agonist – RXFP1 (human) receptor agonism | Potency, µM (titrated, usually from 57.5 µM), without a hit: at the top dose activation, actives largely listed as activators | hit rate 0.3% among 370,000 | HEK293T-RXFP1 cAMP TR-FRET, 30 min; response scale: percent of porcine relaxin response, buffer zero | Q9HBX9; note: % is set by controls: 0 for no effect and ±100 for the full control effect; nearly all actives have a fitted effect of over 60% in size; many of its hits are not listed in these tables
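Agonist response is measured as cAMP accumulation in an RXFP1-transfected HEK293T line under PDE4 inhibition. Values are scaled between buffer-only and 29 nM porcine relaxin, and EC50s come from standard Hill equation fits.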
rTrxR1 inhibitor – inhibitors of rat thioredoxin reductase 1; hit rate 1% among 390,000; Potency, µM (doses to about 114 µM), for inactives: at the highest dose activity change, negative = inhibition, usual class: inhibitors; recombinant rTrxR1, NADPH fluorescence consumption, selenite substrate; note: % is set by controls: 0 for no effect and ±100 for the full control effect; nearly all actives have a fitted effect of over 65% in size
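Rat TrxR1 (90 nM in the dispensed reagent) was pre-reduced with 400 uM NADPH for 5 min at room temperature, then incubated with compound for 15 min. After 400 uM selenite was added, NADPH fluorescence (Ex 340/Em 450 nm) was followed for 8 min.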
ALOX12 inh – ALOX12 (human) lipoxygenase inhibition. purified 12hLO, xylenol orange hydroperoxide absorbance. Potency, µM (doses to about 108 µM), for inactives: at the highest dose activity change, negative = inhibition, actives largely listed as inhibitors. hit rate 1.1% among 580,000. AID 1671190. P18054; note: % is set by controls: 0 for no effect and ±100 for the full control effect
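Purified human 12hLO (150 nM final) in 25 mM Hepes, 0.01% Triton X-100, pH 7.0 was preincubated 15 min at room temperature with compound. Then 40 uM arachidonic acid was added, 30 min. Hydroperoxide was read by Fe-XO absorbance ratio 573/405 nm.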
Vif-A3F inh – inhibitors of Vif-A3F interaction; HeLa A3F-eYFP + Vif (tagged APOBEC3F with the HIV-1 protein that degrades it), YFP fluorescence increase; Potency, µM (series often up to 46.1 µM), without a hit: top-dose activity, negative = active; hit rate 0.2% among 390,000; AID 602313; note: % of control where 0% means no effect; nearly all actives have a fitted effect of over 65% in size
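Fluorescence increase (Ex 488/Em 500-530) after overnight compound treatment at 37 deg C flags inhibition of Vif-driven A3F-eYFP loss in stable HeLa A3F-eYFP/Vif cells seeded overnight beforehand.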
An asterisk follows results filed as active; ? = inconclusive; . = no result given; & = joins results of further samples; [ ] = dose if it differs, or a comment. Calls come from the whole dose curve; as a rule, active = well fitted curve in the direction sought with a large enough effect; inconclusive = small, poorly fitted or top-dose-only effect, or another doubt; inactive = no such curve, though single readings can be large; an effect the other way counts as inactive or inconclusive. Potency is the fitted concentration of half-maximal effect. An excerpt; rates above refer to the full screens.

The first 2 entries as a preview:
SMILES | TrxR1 substrate | Vif-APOBEC3G blk | RGS4 inh | IDH1 R132H inh | RXFP1 agonist | rTrxR1 inhibitor | ALOX12 inh | Vif-A3F inh
CCc1ccc(N2C(=O)c3sc4nnc(-c5ccccc5)c(=O)n4c3C2=O)cc1 | 5%[57.1 µM] | -1% | -25% | -4% | 2.2% | -10%[57.1 µM] | ? | 9%
CC(C)c1ccc(-c2c(NCCc3ccccc3)c(=O)c2=O)cc1 | -6% | 0% | 19% | -3% | 3.2% | 19% | ? | -15%

The list itself, from the start:
SMILES | TrxR1 substrate | Vif-APOBEC3G blk | RGS4 inh | IDH1 R132H inh | RXFP1 agonist | rTrxR1 inhibitor | ALOX12 inh | Vif-A3F inh
CCc1ccc(N2C(=O)c3sc4nnc(-c5ccccc5)c(=O)n4c3C2=O)cc1 | 5%[57.1 µM] | -1% | -25% | -4% | 2.2% | -10%[57.1 µM] | ? | 9%
CC(C)c1ccc(-c2c(NCCc3ccccc3)c(=O)c2=O)cc1 | -6% | 0% | 19% | -3% | 3.2% | 19% | ? | -15%
Cc1ccc(N2CCN(C(=O)c3c(C)oc4ncnc(N5CCOCC5)c34)CC2)c(C)c1 | 4% | 2% | -4% | 15% | -0.4% | 12% | -7%&-18% | -1%
CCCNC(=O)C1(S(=O)(=O)c2ccccc2)CC=CC1 | 0% | 0% | 7% | 3% | 2.5% | 13% | -10% | -2%
O=C(/C=C/NNC(=O)c1ccccc1)c1ccc([N+](=O)[O-])cc1 | 2%[57.1 µM] | -3% | -23% | 1% | -1.5% | 2%[57.1 µM] | -6% | 1%
C=CCNC(=O)C(C)N1c2cccc3cccc(c23)S1(=O)=O (stereo unspecified) | 1%[57.1 µM] | -1% | 4% | 5% | -0.1% | 13%[57.1 µM] | -3% | 10%
Cc1ccc(C(=O)NCCNc2ccc(Cl)cc2[N+](=O)[O-])o1 | -6%[57.1 µM] | -7% | 1% | -1% | -0.7% | -7%[57.1 µM] | -22% | 4%
Cc1cccc(C(=O)NN/C=C/C(=O)c2ccccc2)c1 | -7%[57.1 µM] | -8% | -8% | 10% | 0.3% | -5%[57.1 µM] | 94%[activator] | ?
CC1CN(C(=O)COC(=O)Cc2c(F)cccc2Cl)CC(C)O1 (stereo unspecified) | 0% | 4% | 27% | 11% | -0.5% | 16% | -22% | 0%
Nc1cc(=O)[nH]c(SCc2ccccc2)n1 | . | 1% | . | -1% | . | . | -19% | 1%
COc1ccccc1NC(=O)N(Cc1ccccc1)C1=NCC(C)S1 (stereo unspecified) | 1% | 2% | -53% | 5% | -2.6% | 5% | -14% | 1%
Cc1c(-n2c(O)c(C3=c4ccccc4=NC3=O)sc2=O)c(=O)n(-c2ccccc2)n1C | 1%[57.1 µM] | -5% | -37% | 0% | 4.6% | 6%[57.1 µM] | 6% | 3%
COC(=O)c1ccccc1NC(=O)CCC(=O)N1CCOc2ccccc21 | 12% | -3% | -4% | 3% | ? | 15% | 9% | 1%
COC(=O)c1ccc(OC(=O)c2nn(C)cc2Cl)c(OC)c1 | -10% | 4% | 5% | -1% | -0.3% | -13% | 20% | -11%
CSc1cccc(NC(=O)c2cc3c(COC(C)=O)cnc(C)c3oc2=O)c1 | -2%[57.1 µM] | ? | 10% | 21% | 2.8% | -3%[57.1 µM] | -20% | 10µM*
CCOC(=O)c1cc(C#N)c(Oc2ccc(F)cc2)nc1-c1ccccc1 | 1%[57.1 µM] | -5% | 21% | 1% | -4.3% | 13%[57.1 µM] | 19% | -7%
CCCCCCCC(=O)N/N=C(/C)c1c(O)cc(C)oc1=O | 2%[57.1 µM] | 4% | -14% | -4% | 4.1% | 7% | 12% | 1%
N#CC(C#N)=C(Nc1ccc(F)cc1)SCc1cccc(F)c1 | -4% | -7% | -1% | -3% | 0.7% | 15% | -26% | -7%
Cc1cccc(C)c1Nc1nc2ccccc2nc1NS(=O)(=O)c1ccccc1 | -8% | -15% | -29% | 11% | 1.4% | ? | -4% | 11µM*
O=C1C=C(NNC(=O)c2cccnc2)CC(c2ccco2)C1 (stereo unspecified) | -15% | 4% | -12% | -3% | 0.8% | -26% | -2% | -6%
COc1ccc(/C=C2\CCCc3c2nc2ccc(C)cc2c3C(=O)O)cc1O | -4% | 0% | -25% | -15% | -0.1% | 19%[0.0914 µM] | ? | 4%
CC(C)(C)NC(=O)CSc1nc(O)cc(=O)[nH]1 | 8% | 0% | -25% | 0% | 2.7% | 17% | 4% | 1%
O=C1Cc2ccccc2C(=O)N1OCc1ccc(Cl)cc1 | -2%[57.1 µM] | -1% | -36% | -24% | 1.6% | ? | ? | 9%
Cc1nc(-c2ccc(C(=O)Nc3ccc(F)cc3)cc2)cs1 | 12% | 0% | -11% | -1% | ? | 26% | 2% | 1%
C[C@H](NC(=O)c1nc[nH]c1C(=O)N[C@@H](C)C(=O)OC(C)(C)C)C(=O)OCc1ccccc1 | -10% | -9% | -11% | -3% | 1.0% | 4% | 4% | -2%
Cc1ccccc1NC(=O)C1CC(Cl)=CCC1C(=O)O (stereo unspecified) | 3%[57.1 µM] | 2% | -35% | 5% | 3.1% | -6%[57.1 µM] | 0% | -1%
COc1cc2cnc(-c3ccsc3)c(-c3ccc(F)cc3)c2cc1OC | -6% | -1% | -15% | ? | 1.2% | 11%[57.1 µM] | -21% | 5%
CCOC(=O)N1CCN(C(=O)NC23CC4CC(CC(C4)C2)C3)CC1 | -1% | 0% | 13% | 2% | 1.2% | 7% | 497%[activator] | 0%
CCC1CCCCN1CCCNC(=O)CCCNC(=O)Cn1cnc2sc3c(c2c1=O)CCCC3 (stereo unspecified) | -1% | -1% | 70%[activator] | 0% | ? | 20% | -19% | -1%
CCOC(=O)/C(C#N)=C/c1ccc(-c2ccc(Br)cc2)o1 | 1% | -13% | 15% | 13% | 2.2% | -4% | -29% | -10%
Cc1ccc(CN2C(=O)SC(Nc3ccc(Cl)cc3)C2=O)cc1 (stereo unspecified) | -2% | -2% | -2% | -23% | -0.2% | 1% | -2% | ?
CCS(=O)(=O)n1c(Cc2cccs2)nc2ccccc21 | -5% | -6% | 1% | -7% | -1.2% | -8%[57.1 µM] | ? | 8%
O=C(NN1CC(C(=O)OCc2ccc(Br)cc2)CC1=O)c1ccccc1 (stereo unspecified) | 6% | -2% | 10% | 0% | 0.0% | 37%[activator] | 4%&6% | -2%
CCC(Cn1nnc2ccccc2c1=O)NC(=O)Nc1ccc(C)c(C)c1 (stereo unspecified) | 7% | 5% | -7% | 5% | 0.4% | 20% | -11% | 4%
COC(=O)CCC(=O)OC1(C)C(=O)C=C2C=C(C3CC3)N(CC3CC3)C=C2C1=O (stereo unspecified) | -16% | -7% | -13% | -15% | 3.8% | 7% | -1% | -1%
CC1=CC(=C(C#N)c2nc3ccccc3s2)C=C(C)N1c1ccc(F)cc1 | -11% | 0% | -26% | 0% | 0.3% | -14% | ? | ?
COc1ccc(C(=O)Nc2nc3n(n2)C(c2ccccc2)C=C(c2ccccc2)N3)cc1 (stereo unspecified) | 7%[57.1 µM] | -12% | -14% | -6% | 9.4% | ? | -14% | -6%
COc1cc(CO)c(Br)cc1OCC(N)=O | 8%[57.1 µM] | 1% | 13% | 5% | -0.1% | 15%[57.1 µM] | 6% | -10%
O=C(Nc1ccc(S(=O)(=O)N2CCOCC2)cc1)c1cccs1 | 4% | -3% | -27% | -7% | 0.6% | 14% | 0% | 0%
C/C(=N\NC(=O)c1ccccc1O)c1c(O)cc(C)oc1=O | -19% | -8% | -12% | 10% | 0.2% | -23% | 27% | 1%
CC(C)[C@@H](C(=O)OCC(=O)c1ccc2c(c1)NC(=O)CO2)N1C(=O)c2ccccc2C1=O | 3% | 1% | -22% | 3% | . | 21% | 0% | 0%
COc1cccc(/C=C/C(=O)OCC(=O)NCCNC(=O)COC(=O)/C=C/c2cccc(OC)c2)c1 | 9% | 1% | -23% | 1% | 0.3% | 4% | 0% | 5%
Cc1ccc2sc(-c3ccc(NC(=O)/C=C\C(=O)O)cc3)nc2c1 | 4%[57.1 µM] | -8% | -37% | 2% | 0.1% | 11%[57.1 µM] | ? | 6%
CC(C)[C@H](Nc1ccc(S(=O)(=O)N2CCOCC2)cc1[N+](=O)[O-])C(=O)OCC(=O)N(C(C)C)C(C)C | -17% | 2% | 18% | 2% | 3.9% | -12% | -25% | -19%
CC(=O)N1CCC(=O)N(C(C)C)c2ccccc21 | 3% | -3% | 12% | -2% | 0.4% | 13% | 0% | 1%
CCC(=O)NS(=O)(=O)c1cccnc1Nc1ccccc1Cl | 8%[57.1 µM] | -7% | -3% | 3% | 1.3% | 1% | -2% | 0%
COc1ccccc1CNC(=O)C(CC(C)C)N1Cc2ccccc2C1=O (stereo unspecified) | -7% | 1% | 13% | 0% | -2.2% | -1% | -4% | 6%
CC(C)NC(=O)C(OC(=O)c1ccccc1)C(OC(=O)c1ccccc1)C(=O)O (stereo unspecified) | -13% | 2% | 13%[11.4 µM] | -9% | 1.2% | 14%[57.1 µM] | -15% | -11%
COc1cccc(OC)c1OCCOCCn1cnc2ccccc2c1=O | -1% | 0% | -4% | 2% | 1.7% | 12% | 21% | -2%
O=S(=O)(Cc1ccccc1Cl)c1ncn[nH]1 | -4% | 0% | -2% | 7% | -0.5% | 15%[57.1 µM] | ? | 8%
O=C(NN1CC(C(=O)OCc2ccc(Cl)cc2Cl)CC1=O)c1ccccc1 (stereo unspecified) | 3% | 5% | -29% | 0% | 2.2% | 8% | -20% | 1%
COc1ccccc1CCn1c(N)c(C#N)c2nc3ccccc3nc21 | 187%[activator][57.1 µM] | -4% | -29% | 2% | 1.1% | 24%[57.1 µM] | 4% | -1%
CC(=O)Nc1nc2n(n1)C(c1ccc(F)cc1)C=C(c1ccccc1)N2 (stereo unspecified) | 17% | 0% | -8% | 0% | 5.4% | ? | 20% | -5%

Source: PubChem
